VDR inh = vitamin D3 receptor (human) inhibition. P11473. VDR-SRC2-3 peptide fluorescence polarization, 2 h. Potency, µM, inactives show max response, negative = inhibition, hits mostly inhibitors. actives 0.93% (n = 400,000); active = well fitted inhibition curve with a large enough effect; inconclusive = small, poorly fitted or top-dose-only effect, or another doubt; inactive = no such curve, though single readings can be large or run the other way; note: series mostly up to about 120 µM
Target sequence (P11473 whole entry, looked up): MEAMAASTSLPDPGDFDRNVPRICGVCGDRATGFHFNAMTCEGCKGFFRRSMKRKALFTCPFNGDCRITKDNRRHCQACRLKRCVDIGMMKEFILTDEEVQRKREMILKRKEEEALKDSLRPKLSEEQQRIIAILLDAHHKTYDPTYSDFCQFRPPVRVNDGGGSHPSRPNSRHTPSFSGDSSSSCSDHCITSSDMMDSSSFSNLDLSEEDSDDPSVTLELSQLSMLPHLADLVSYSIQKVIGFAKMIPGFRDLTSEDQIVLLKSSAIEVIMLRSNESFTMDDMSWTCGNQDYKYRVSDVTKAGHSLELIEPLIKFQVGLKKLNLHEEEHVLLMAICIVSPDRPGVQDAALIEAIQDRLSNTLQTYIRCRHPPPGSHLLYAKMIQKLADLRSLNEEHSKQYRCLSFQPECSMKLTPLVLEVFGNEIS
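Reagent solutions, kept cold and dark, are dispensed first; compounds are then pinned in at 23 nl, plates briefly spun, and incubated 2 h at ambient temperature. Inhibition of VDR–SRC2-3 peptide binding is read by fluorescence polarization.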
* hit, by the source's call; ? = inconclusive; & = joins results of further samples; [ ] = another dose, or the depositor's remark. % is set by controls: 0 for no effect and ±100 for the full control effect; potency is the fitted concentration of half-maximal effect. Some of the compounds tested, so the mix of outcomes need not match the whole.

SMILES	VDR inh
O=C(c1ccc(NS(=O)(=O)c2ccccc2)cc1)N1CCN(Cc2ccc3c(c2)OCO3)CC1	-5.9%
CC(=O)Nc1ccc(NC(=O)CSc2n[nH]c(-c3cccs3)n2)cc1	-3.3%
C=Cc1ccc(CSc2nc(-c3ccc(C)cc3)nc3c2Cc2c(CO)cnc(C)c2O3)cc1	1.7%
COc1ccc(C)cc1NC(=O)c1c(C(=O)Nc2cccc(C)c2C)sc2nc(C)cc(=O)n12	6.0%
COc1ccc(NC(=O)c2cn(-c3ccccc3)nc2-c2ccncc2)cc1	3.2%
CCOC(=O)c1sc(NC(=O)CSc2ncn(-c3ccccc3)n2)nc1C	2.2%
COc1cccc(CN(C)C(=O)c2cccc(S(=O)(=O)NCc3ccccc3)c2)c1OC	-1.0%
O=C(Cn1cc(S(=O)(=O)Cc2ccccc2F)c2ccccc21)N1CCOCC1	-23.6%
O=C(N/N=C/c1cc([N+](=O)[O-])ccc1Cl)c1ccc2nc[nH]c2c1	5.3%
CC(C)CCN1C(Nc2ccccc2)=NC[C@@H]1C	-7.1%
CSc1ccccc1NC(=O)c1ccc([N+](=O)[O-])cc1	?
C/C(=N\N=c1/sc2ccccc2n1C)c1ccccn1	-8.2%
CCOC(=O)C1CCN(CCC(=O)Nc2ccc(Br)cc2)CC1	-0.7%
COc1ccc(C2/C=C\CN(Cc3ccncc3)CC(=O)N2Cc2ccc(F)cc2)cc1 (stereo not given)	-16.7%&-3.1%
COc1ccc(-c2cccc(NC(=O)c3cccs3)c2)nn1	-9.7%
CC1=CCC2C(=O)N(c3nc(C)cc(C)n3)C(=O)C2C1 (stereo not given)	19.8%
Cc1nn(-c2ccc(F)cc2)c(C)c1CN1CCN(Cc2ccccc2)C(CCO)C1 (stereo not given)	-4.6%
CCOc1ccc(N2C(=O)c3cccnc3C2=O)cc1	-0.7%
CC(=O)Nc1ccc(C2=NN(C)C(=NCc3ccccc3)SC2)cc1	-15.8%
CN1CCN(c2oc(-c3cccs3)nc2S(=O)(=O)c2ccccc2)CC1	-12.1%
CCCN(CCC)C(=O)CSc1nc2sc3c(c2c(=O)n1-c1ccccc1)CCN(C(C)=O)C3	-1.1%
Cc1nn(C)cc1S(=O)(=O)N1CCN(c2cccc(Cl)c2)CC1	5.9%
O=C(CN1C(=O)S/C(=C/c2ccc(N3CCOCC3)cc2)C1=O)N1CCOCC1	3.3%
COc1cccc(C(=O)N2CCN(C3CCC(c4ccccc4)CC3)CC2)c1 (stereo not given)	-3.9%
Cc1cc(C(=O)COC(=O)c2cccnc2Cl)c(C)n1CC1CCCO1 (stereo not given)	89.1µM*
More results follow:
SMILES	VDR inh
Cc1nn(C(C)(C)C)c(OC(=O)c2ccc3c(c2)OCO3)c1Sc1ccccc1	-11.8%
Cc1cccc[n+]1CC(=O)c1ccc([N+](=O)[O-])cc1	-0.1%
CCCSc1nnc(CSc2nc3ccccc3s2)n1-c1ccccc1	-14.3%
Cc1ccc2nc(NC(=O)CCNS(=O)(=O)c3cccs3)sc2c1	9.2%
Cc1cc(C)cc(-n2c(SCC(=O)NC3CCCCC3)nc3c([nH]c4ccccc43)c2=O)c1	2.0%
CN(C)c1ccc(N2C(=NC(=O)C3CCCO3)SC3CS(=O)(=O)CC32)cc1 (stereo not given)	5.5%
COc1cc(C2C(C(=O)Nc3ccccc3)=C(C)Nc3nc(SCc4ccccc4F)nn32)cc(OC)c1OC (stereo not given)	-15.5%
COc1ccc(N/C=C/C(=C(C#N)C#N)N(C)C)cc1	-9.2%
O=C(Nn1c(O)c(C=C2N=c3ccccc3=N2)sc1=S)c1ccccc1Cl	11.3%
Cc1ccc(N2CC(C(=O)N(C)CC(=O)Nc3ccc(Cl)c(C(F)(F)F)c3)CC2=O)cc1 (stereo not given)	-5.6%
COc1ccccc1OCCC(=O)OCC(=O)Nc1ccc(Br)cc1	5.3%
CCCS(=O)(=O)N1CCN=C1SCc1cccc(C)c1	-12.6%
O=C(O)C(Cc1ccccc1)N1C(=O)/C(=C/c2ccccc2)SC1=S (stereo not given)	?
O=C(NCCS(=O)(=O)N1CCN(c2ccccc2)CC1)C1CC1	-10.4%
CCOC(=O)Cn1c(=O)cc(-c2ccccc2)c2c(C)nn(C)c21	9.8%
COc1ccc2[nH]cc(C(=O)CN(C)CCc3ccc(OC)c(OC)c3)c2c1	?
COc1ccc(S(=O)(=O)N(C)Cc2nc(-c3cccc(C)c3)no2)cc1	5.5%
COc1ccc(CSc2nncn2C)cc1[N+](=O)[O-]	11.1%
O=C(NCC(c1cccnc1)N1CCN(c2ccccc2F)CC1)c1ccco1 (stereo not given)	10.8%
CC(NC(=O)c1ccccc1)C(=O)N/N=C/c1ccc(O)cc1 (stereo not given)	17.8%
C=CCNC(=O)c1cc(Cl)cc(Cl)c1	?
Cc1cccc(NC(=O)/C=C/c2ccc(Cl)cc2)n1	-6.5%
CCOc1cc(C(=O)OCC(=O)NCc2ccco2)cc(OCC)c1OCC	-1.9%
FC(F)C(F)(F)c1cc(-c2ccccc2)n[nH]1	3.2%
CCCCN1C(=O)C(=O)N(CC(=O)Nc2sc(C)c(C)c2C(=O)OC)C1=O	-6.4%
(cont.)
SMILES	VDR inh
O=C(Cc1cccc2ccccc12)NC(=S)Nc1cccc(C(=O)O)c1	-8.7%
COC(=O)c1ccc(NC(=O)C2CCCO2)cc1 (stereo not given)	19.6%
Cc1ncc(CN=Cc2ccc(Cl)cc2)c(N)n1	1.3%
CCn1cc(C(=O)O)c(=O)c2cc(F)c(N/N=C/c3ccccc3[N+](=O)[O-])cc21	-8.4%
CCOC(=O)Cc1csc(NC(=O)Cc2ccc(C)cc2)n1	-1.7%
Cc1nc(N)nc(Nc2ccc(Cl)cc2)c1Br	-14.9%
O=C(COc1cc2oc(=O)c3c(c2cc1Cl)CCCC3)NCc1cccnc1	-21.0%
O=C(COC(=O)c1cncc(Br)c1)NCc1cccs1	-13.1%
Cc1ccc(C)c(NC(=S)c2ccc3ccccc3n2)c1	-12.1%
COc1cc(NC(=O)CNC(=O)Cn2c(C)cc3ccccc3c2=O)cc(OC)c1OC	7.4%
Cc1ccsc1C(=O)N/N=C/C=C/c1ccccc1[N+](=O)[O-]	10.4%
c1ccc(-n2nnnc2-c2cccnc2)cc1	-0.8%
CCOC(=O)c1c(C)[nH]c(C(=O)COC(=O)C(C)N2C(=O)C3CCCCC3C2=O)c1C (stereo not given)	20.5%
CCN(C(=O)c1ccc(Cl)c([N+](=O)[O-])c1)c1ccccc1	-3.1%
CCOc1cccc(N2CCN(CCNC(=O)Nc3ccc(C)cc3)CC2)c1C	-18.6%
NNC(=O)c1ccc(Cn2cc(Cl)cn2)o1	-4.4%
Cc1ccc(NC(=O)CCCc2nc3ccccc3c(=O)[nH]2)c(Cl)c1	-2.2%
Cc1nc2cc(C(=O)OCC(=O)NC34CC5CC(CC(C5)C3)C4)ccc2n1-c1ccccc1	2.8%
CCOC(=O)N1CCN(C(=O)CSCC(=O)Nc2nc(-c3ccc(OC)cc3)cs2)CC1	9.8%
O=C(NCC12CC3CC(CC(C3)C1)C2)c1cc2n(n1)C(C(F)(F)F)CC(c1ccco1)N2 (stereo not given)	12.0%
O=C(O)CCNC(=O)OCC1c2ccccc2-c2ccccc21	16.7%
CC(C)(C)NC(=O)/C=C/c1cccs1	-18.7%
O=C(Nc1cccc(-c2nn[nH]n2)c1)c1csc2c1CCCC2	-4.8%
Cc1cccc(C(=O)NC(=S)Nc2ccc3[nH]c(=O)[nH]c3c2)c1	-23.0%
O=S(=O)(c1cccs1)N1CCN(CC(O)COc2cc(Cl)ccc2Cl)CC1 (stereo not given)	1.2%

By substructure, those above with an aryl thioether with sulfur outside any ring (10)
SMILES	VDR inh
CC(=O)Nc1ccc(NC(=O)CSc2n[nH]c(-c3cccs3)n2)cc1	-3.3%
C=Cc1ccc(CSc2nc(-c3ccc(C)cc3)nc3c2Cc2c(CO)cnc(C)c2O3)cc1	1.7%
CCOC(=O)c1sc(NC(=O)CSc2ncn(-c3ccccc3)n2)nc1C	2.2%
CSc1ccccc1NC(=O)c1ccc([N+](=O)[O-])cc1	?
CCCN(CCC)C(=O)CSc1nc2sc3c(c2c(=O)n1-c1ccccc1)CCN(C(C)=O)C3	-1.1%
Cc1nn(C(C)(C)C)c(OC(=O)c2ccc3c(c2)OCO3)c1Sc1ccccc1	-11.8%
CCCSc1nnc(CSc2nc3ccccc3s2)n1-c1ccccc1	-14.3%
Cc1cc(C)cc(-n2c(SCC(=O)NC3CCCCC3)nc3c([nH]c4ccccc43)c2=O)c1	2.0%
COc1cc(C2C(C(=O)Nc3ccccc3)=C(C)Nc3nc(SCc4ccccc4F)nn32)cc(OC)c1OC (stereo not given)	-15.5%
COc1ccc(CSc2nncn2C)cc1[N+](=O)[O-]	11.1%

(list continues)
SMILES	VDR inh
CCSc1nnc(NC(=O)c2ccccn2)s1	3.5%
FC(F)(F)c1ccccc1-c1cncnc1NCc1cccs1	?
CCN(CC)S(=O)(=O)c1cccc(C(=O)/C=C2/N(C)c3ccccc3C2(C)C)c1	-3.9%
CCOC(=O)CN1C(=O)N[C@@H](c2ccc(Br)cc2)C(C(=O)OC)=C1C	-4.5%
N#Cc1c(-c2ccccc2)c(-c2ccccc2)nn(CC(=O)NNC(=O)Nc2ccc(Cl)cc2)c1=O	-4.8%
CCOc1ccc(NC(=O)Cn2c(=O)cc(C)c3c(C)nn(-c4cccc(Cl)c4C)c32)cc1	7.5%
CCc1ccccc1NC(=O)C1CCCN(S(=O)(=O)c2ccc3[nH]c(=O)ccc3c2)C1 (stereo not given)	-8.8%
Cc1occc1C(=O)N/N=C/c1ccc2c(c1)OCO2	1.5%
CCSc1ccccc1C(=O)Nc1cc(OC)c(OC)c(OC)c1	-12.1%
CN1CCN(Cc2c(O)ccc3cc(Br)ccc23)CC1	?
Cc1ccc(OCCNCC(O)COc2ccccc2)cc1 (stereo not given)	13.1%
CCN(C(=O)Cn1nc(C)c([N+](=O)[O-])c1C)c1c(N)n(Cc2ccccc2)c(=O)[nH]c1=O	-7.1%
COc1ccc(OC)c2c(C)cc(NCCN3CCOCC3)nc12	-4.0%
O=[N+]([O-])c1ccccc1Sc1nccn1Cc1ccccc1	-11.2%
CC(C)CC(=O)Nc1cc2c3c(c1)C(C)C(=O)N3CCC2 (stereo not given)	-26.4%
COC(=O)C1(NC(=O)CNC(=O)OCc2ccccc2)CCCC1	14.5%
CCOc1cc(-c2nc3cc(C)ccn3c2NCC2CCCO2)ccc1O (stereo not given)	-1.8%
Cc1cc(C(=O)OCC(=O)NC2CCS(=O)(=O)C2)c2ccccc2n1 (stereo not given)	-2.3%
COc1ccc(C2=NC(=O)NC2c2ccc(OC)cc2)cc1 (stereo not given)	-12.8%
COc1cccc(Oc2ccc(OC)cc2C(=O)O)c1	4.2%
COc1ccc(Br)cc1/C=C/C(=O)NC(=S)Nc1ccc(CN2CCOCC2)cc1	-24.5%
CCOC(=O)c1sc(NC(=O)CNCc2ccccn2)c(C(=O)OCC)c1C	-3.2%
CCN1C(=O)c2cccc3c(NC(=O)c4ccc(S(=O)(=O)N5CCOCC5)cc4)ccc1c23	-14.2%
Cc1ccc(NC(=O)C2CCC(CNS(=O)(=O)c3ccc4c(c3)CCCC(=O)N4)CC2)cc1F (stereo not given)	3.9%
CCC(C)c1ccc2oc(-c3ccc(NC(=O)c4ncn[nH]4)cc3)nc2c1 (stereo not given)	14.7%
New compounds follow
SMILES	VDR inh
COC(OC)C1(C)C(C#N)=C(N)Oc2c1c(=O)oc1ccccc21 (stereo not given)	2.7%
Cc1cc(Cl)ccc1NC(=S)N1CCN(C(=O)C2CCCO2)CC1 (stereo not given)	-10.4%
Cc1ccc(S(=O)(=O)CCC(=O)OCc2nnc(-c3ccc([N+](=O)[O-])cc3)o2)cc1	-4.9%
CC(=O)c1cc2c(cc1C)CCCC2(C)C	36.5%[activator]
Cc1cccc(NC(=O)NNC(=O)c2cc3occc3[nH]2)c1C	8.5%
Cc1cccc(OCC(=O)Nc2cc(NC(=O)COc3cccc(C)c3C)cc(C(=O)O)c2)c1C	-26.9%
O=C(CN1CCCCCC1)Nc1ccc(F)c(F)c1	-6.7%
CCOc1ccc(C2c3[nH]c4ccccc4c3CCN2C(=O)CSCc2ccc(F)cc2)cc1 (stereo not given)	1.9%
C=CCNc1nc(N2CCOCC2)c(C#N)c2c1CN(C)CC2	13.0%
COc1ccccc1CNC(=O)CCc1c(C)nc2cc(-c3ccccc3OC)nn2c1C	6.5%&-6.5%
CCOC(=O)c1c(C)[nH]c(C(=O)NNC(=O)c2ccc(C(C)(C)C)cc2)c1C	1.7%
O=C(Nc1ccccc1C(=O)NCCCN1CCOCC1)c1cccc([N+](=O)[O-])c1	10.2%
COC(=O)c1ccccc1N=Nc1c(C)n[nH]c1C	7.2%
COc1ccc(N=Cc2ccc(CNS(=O)(=O)c3ccc(Cl)cc3)o2)cc1	13.0%
O=C(NC1CCN(S(=O)(=O)c2ccc(F)cc2)CC1)c1ccco1	-12.2%
CCN(C(=O)CSc1ccc2ccccc2c1)C1CCS(=O)(=O)C1 (stereo not given)	-6.1%
CN(C)CCN(C)Cc1ccccc1Sc1cccc2ccccc12	-6.7%
Nc1c(-c2ccccc2)cnc2ncnn12	18.4%
O=C(CCN1CCOCC1)NCc1ccccc1	12.2%
O=C(c1ccncc1)N1CCC2(CCCN(Cc3nccs3)C2)CC1	-11.5%
O=C(c1cccc(S(=O)(=O)NCc2ccccc2)c1)N1CCN(c2ccc(F)cc2)CC1	-5.3%
COc1ccc(CCC(=O)Nc2ccc(OC)c(S(=O)(=O)N3CCCCC3)c2)cc1	5.2%
COc1ccc(Nc2oc(-c3ccc(F)cc3)nc2C#N)cc1	-9.2%
CC(=O)COc1cccc2ccc(/C=C/c3ccc(Br)s3)nc12	-10.7%
CCc1nnc(NS(=O)(=O)c2ccc(N/C=C\C(=O)c3ccc(F)cc3)cc2)s1	2.3%
C[C@H]1CN=C(Nc2ccccc2)N1CCc1ccccc1	-2.4%
CC(/C=C/c1ccccc1)=N\NC(=O)c1cc(C)[nH]n1	-3.4%
COC(=O)COc1ccc(S(=O)(=O)N2CCCCC2)cc1[N+](=O)[O-]	-12.5%
CCOc1ncccc1C(=O)OC(C)C(=O)Nc1ccc(N2CCOCC2)cc1 (stereo not given)	-3.7%
